FPRL1 binder: human FPRL1 ligands by binding competition, primary screen, cell-based, FPR counter-screen, flow cytometry | N-formyl peptide receptor 2 (Homo sapiens), P25090 | FPRL1-expressing cells, fluorescent ligand binding inhibition | inhibition, %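 (tested at 6.7 µM)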 | actives 0.3% (n = 24,000);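 note: 0% = buffer alone and 100% = receptor blocker peptide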
Target sequence (P25090 whole entry, looked up): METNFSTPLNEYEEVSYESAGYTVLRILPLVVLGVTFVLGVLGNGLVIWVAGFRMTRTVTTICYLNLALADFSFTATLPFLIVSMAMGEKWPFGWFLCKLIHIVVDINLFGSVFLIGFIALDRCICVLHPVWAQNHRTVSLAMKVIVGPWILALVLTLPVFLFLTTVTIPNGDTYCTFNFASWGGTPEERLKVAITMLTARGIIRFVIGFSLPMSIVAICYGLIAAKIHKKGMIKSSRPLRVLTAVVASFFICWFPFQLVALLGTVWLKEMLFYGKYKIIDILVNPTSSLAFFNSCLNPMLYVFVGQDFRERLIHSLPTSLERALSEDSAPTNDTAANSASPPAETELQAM
FPR binder: human FPR ligands by binding competition, primary screen, cell-based, FPRL1 counter-screen, flow cytometry; fMet-Leu-Phe receptor (Homo sapiens), P21462; FPR-expressing cells, fluorescent ligand binding; inhibition, %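 (tested at 6.7 µM)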; actives 0.74% (n = 24,000);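 note: 0% = buffer wells and 100% = receptor blocker peptide wells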
Target sequence (P21462 whole entry, looked up): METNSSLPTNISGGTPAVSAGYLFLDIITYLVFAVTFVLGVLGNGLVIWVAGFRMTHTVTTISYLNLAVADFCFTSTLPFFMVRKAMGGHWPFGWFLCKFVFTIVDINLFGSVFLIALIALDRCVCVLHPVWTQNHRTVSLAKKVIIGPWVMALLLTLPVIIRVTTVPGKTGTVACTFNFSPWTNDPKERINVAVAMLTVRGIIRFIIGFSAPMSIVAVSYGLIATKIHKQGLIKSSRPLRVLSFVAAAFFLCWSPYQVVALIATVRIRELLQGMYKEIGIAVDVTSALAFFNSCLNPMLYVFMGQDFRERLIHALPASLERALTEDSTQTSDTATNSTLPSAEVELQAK
VCAM-1 inhibition: inhibitors of TNFa-induced VCAM-1 surface display, cell-based, plate reader, pooled HUVEC, TNFa stimulus (AID 454); HUVEC TNFa-induced VCAM-1 surface immunofluorescence, plate reader; numbers were filed only for top-ranked candidate wells; inhibition, % at 5 µM; actives 0.2% (n = 10,000);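 active = compound among top-ranked inhibitors of TNF-induced VCAM-1 adhesion protein staining, with the hit upheld by image or statistical review; inactive = the rest, including hits rejected on review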;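 note: 0% = TNFa with vehicle and 100% = cells without TNFa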
VCAM-1 down imaging: inhibitors of TNFa-induced VCAM-1 surface display, imaging, high-content imaging, pooled HUVEC, TNFa stimulus (AID 456) | HUVEC TNFa-induced VCAM-1 surface expression, immunofluorescence imaging; numbers were filed only for top-ranked candidate wells | one-dose inhibition, % at 5 µM; IC50 in µM for titrated hits | actives 0.2% (n = 10,000);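 active = top tenth filtered wells with inhibition above zero that passed visual or statistical confirmation; inactive = the rest, including hits rejected on review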;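 note: 0% = stimulated vehicle wells and 100% = unstimulated cells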
VCAM-1 augmentation: enhancers of VCAM-1 display on endothelial cells, imaging, high-content imaging, pooled HUVEC, TNFa stimulus (AID 457); Pooled HUVEC, TNFa-induced VCAM-1 immunofluorescence imaging; hits of this screen are not shown here; calls only; actives 0.2% (n = 10,000);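 active = a top-ranked rise in VCAM-1 staining upheld on image or statistical review; inactive = the rest, including candidates rejected on review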;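 note: compounds tested at 5 µM in the well; cells exposed to compound for 24 hours before fixing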
The depositor's hits bear a star; i = inactive; . = not tested or not shown.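 Rule for the calls, unless noted: active = mean above 30%; inconclusive = self-fluorescent; inactive = the rest.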

Values run as follows: FPRL1 binder | VCAM-1 inhibition | VCAM-1 augmentation | VCAM-1 down imaging | FPR binder
- CCOc1cc2c(cc1OCC)C(C(=O)O)C(c1cc(OC)c(OC)c(OC)c1)N(C)C2=O (centres undefined)
  1 | . | . | . | -1
- CCCCOc1ccccc1Cn1c(=O)oc2ccccc21
  2 | . | . | . | 1
- O=C(NC1CCS(=O)(=O)C1)N1CCCCC1 (centres undefined)
  2 | i | i | i | -3
- Cc1ccc(-c2nc3c(=O)n(C)c4ccccc4c3o2)cc1
  6 | . | . | . | 12
- O=C(Cn1c(C(=O)NCC2CCCO2)cc2sccc21)c1ccccc1 (centres undefined)
  5 | i | i | i | 1
- Cn1c(=O)oc2cc(S(=O)(=O)NCCC(=O)NCCc3ccc(Cl)cc3)ccc21
  -4 | . | . | . | -5
- COc1ccccc1OCCSc1nc2ccccc2c(=O)[nH]1
  -2 | i | i | i | 0
- Cc1ccccc1Nc1cc2ccccc2c(=O)[nH]1
  27 | i | i | i | 4
- CCOC(=O)CNc1nc(C#N)nc(N2CCOCC2)n1
  1 | . | . | . | 3
- CC(C)C[C@H](NC(=O)Nc1cccc(C(F)(F)F)c1)C(=O)O
  3 | i | i | i | -6
- O=S1(=O)N=CN(Cc2cccc(F)c2)c2ccccc21
  0 | . | . | . | -3
- CCOC(=O)c1c(C)c(C(=O)Nc2ccc(N(C)C)cc2)c(C)n1CC
  2 | . | . | . | 0
- Cc1cccn2c(=O)c3cc(C(=O)N4CCN(C(=O)c5ccco5)CC4)n(C)c3nc12
  1 | . | . | . | -1
- CCN1C(=O)CSc2ccc(C(=O)OC)cc21
  2 | . | . | . | -5
- Cc1ccnc(NC(=O)CCC(=O)N(CC(=O)NC(C)(C)C)C2CCCC2)c1
  -2 | i | i | i | 1
- CCn1c2ccccc2c2cc(Nc3cc(C)nc4ncnn34)ccc21
  0 | i | i | i | 5
- COC(=O)c1cc2ccsc2n1CC(=O)Nc1cc(C)cc(C)c1
  -3 | i | i | i | -4
- Cc1ccc(NC(=O)c2cc(-c3ccco3)on2)cc1
  4 | . | . | . | 7
- COc1ccc(CCn2c(SCC(=O)Nc3cc(C)on3)nc3ccccc3c2=O)cc1OC
  5 | . | . | . | 5
- CCCC(CCC)C(=O)OC1C[C@H]2CC[C@@H](C1)[N+]2(C)C (some centres undefined)
  1 | i | i | i | 3
- CCOc1ccccc1OCCCCN1CCCC1
  4 | i | i | i | 8
- Cc1noc(C)c1C(=O)Nc1ccc(Cl)cc1C(F)(F)F
  1 | i | i | i | -4
- CCC(C)NC(=O)C1CCN(S(=O)(=O)c2cccc3cccnc23)CC1 (centres undefined)
  0 | . | . | . | -2
- FC(F)(F)c1cccc(N2CCN(c3ccc4nnc(-c5ccccc5)n4n3)CC2)c1
  -11 | . | . | . | -9
- CCCCOc1ccc(-c2ncc(Cl)cn2)cc1
  -1 | i | i | i | 3
- O=C(NC1CCCCC1)C1CCCN1S(=O)(=O)c1cccc2nsnc12 (centres undefined)
  0 | . | . | . | -2
- CCCS(=O)(=O)N1CCCC(C(=O)NCCCN2CCN(c3cccc(Cl)c3)CC2)C1 (centres undefined)
  -4 | . | . | . | -2
- COc1ccc(OC)c(S(=O)(=O)NCc2csc(-c3ccccc3)n2)c1
  1 | . | . | . | 3
- CCOC(=O)N1CCN(S(=O)(=O)c2ccc3[nH]cc(C(=O)O)c(=O)c3c2)CC1
  0 | . | . | . | -4
- O=C(NC1CCCCCCC1)c1ccccc1O
  2 | . | . | . | 5
- Cc1ccc2nc(-c3cccnc3)oc2c1
  -1 | . | . | . | 1
- O=C(NCCCCNC(=O)c1c(F)c(F)c(F)c(F)c1F)c1c(F)c(F)c(F)c(F)c1F
  -5 | i | i | i | 1
- O=C(O)CN1C(=O)C2(OCCCO2)c2ccccc21
  -2 | i | i | i | 4
- CCOc1cccc(/C(O)=C2/C(=O)C(=O)N(Cc3ccco3)C2c2ccncc2)c1 (centres undefined)
  29 | . | . | . | 48*
- O=C(NCCCn1ccnc1)c1noc2c1CCc1ccccc1-2
  -6 | . | . | . | 0
- COc1cc(C(=O)OCC(=O)N(C)Cc2ccccc2)cc(OC)c1OC
  -3 | i | i | i | 1
- CCOC(=O)c1c(NC(=O)COC(=O)c2c(C)noc2C)sc2c1CCC2
  -1 | i | i | i | 11
- Cc1ccccc1N(C)S(=O)(=O)c1ccc2[nH]cc(C(=O)NCC3CCCO3)c(=O)c2c1 (centres undefined)
  0 | i | i | i | -4
- CCOC(=O)c1nnn(CC(=O)Nc2cc(F)ccc2F)c1C(=O)OCC
  1 | . | . | . | 4
- CN1CCN(c2nc(Nc3cccc(C(F)(F)F)c3)nc(N3CCOCC3)n2)CC1
  -4 | . | . | . | 2

An excerpt from above, reduced to FPRL1 binder.
SMILES	FPRL1 binder
CCOC(=O)N1CCN(S(=O)(=O)c2ccc3[nH]cc(C(=O)O)c(=O)c3c2)CC1	0
O=C(NC1CCCCCCC1)c1ccccc1O	2

Carrying on.
Values run as follows: FPRL1 binder | VCAM-1 inhibition | VCAM-1 augmentation | VCAM-1 down imaging | FPR binder
- CCOC(=O)c1sc2ncnc(N3CCN(C(=O)OCC)CC3)c2c1C
  -3 | . | . | . | -4
- COc1cc2c(C#N)c(N3CCN(c4ccccc4OC)CC3)nc(N)c2c(N)n1
  -3 | i | i | i | -3
- CCOC(=O)CSc1nnc(CNC(=O)c2cccs2)n1Cc1ccccc1
  -3 | . | . | . | -4
- CC(C)OCCCNC(=O)CCN1C(=O)COc2ccccc21
  1 | . | . | . | -4
- COc1ccc(C2C(C(=O)Nc3ccccn3)=C(C)Nc3ncnn32)c(OC)c1 (centres undefined)
  2 | . | . | . | -3
- CCn1c(SCC(=O)c2ccc(OC)cc2)nnc1C(C)NC(=O)c1ccc(OC)cc1 (centres undefined)
  4 | i | i | i | 14
- COC(=O)/C=c1\sc2ncnn2c1=O
  2 | i | i | i | 5
- CCOC(=O)N1CCC(NC(=O)Cn2c3ccccc3c3cn[nH]c(=O)c32)CC1
  -1 | . | . | . | -3
- COc1ccc(NC(=O)CC2SC(=Nc3ccccc3)NC2=O)c(OC)c1 (centres undefined)
  2 | . | . | . | -8
- O=C(Cn1cc2c(n1)CCCC2)NCCCN1CCN(c2ccccc2F)CC1
  -6 | . | . | . | -3
- CC(=O)C1C(c2ccc(F)c(F)c2)NC(=O)NC1(O)C(F)(F)F (centres undefined)
  5 | . | . | . | -1
- O=C(Nc1ccccc1C(F)(F)F)N1CCC(N2CCCCC2)CC1
  -4 | . | . | . | -6
- CCc1noc(C)c1C(=O)N1CC(C)OC(C)C1 (centres undefined)
  0 | . | . | . | -1
- CCC(C)NC(=O)C1c2cc(OC)c(OC)cc2C(=O)N(C)C1c1ccc(OC)cc1 (centres undefined)
  10 | i | i | i | 0
- Cc1ccc(CS(=O)(=O)Cc2ccc(C(=O)NCC3CCCO3)o2)cc1 (centres undefined)
  -8 | . | . | . | -4
- CCOC(=O)C1CCN(C(=O)CNS(=O)(=O)c2ccc(Br)s2)CC1
  3 | . | . | . | -6
- O=C(CCc1nc2ccccc2[nH]1)Nc1ccc2c(c1)OCO2
  0 | i | i | i | 5
- Cc1nnc(NC(=O)CSc2nnc(Cc3cccn3C)n2CCc2ccccc2)s1
  0 | . | . | . | 9
- CC(=O)c1cccc(NC(=O)Cn2cc3c(n2)CCCC3)c1
  -8 | . | . | . | -8
- O=C(Nc1ccc(-n2nncc2-c2ccco2)cc1)c1cccc(F)c1
  -2 | . | . | . | -2

A second format for three compounds above.
Compound	FPRL1 binder	VCAM-1 inhibition	VCAM-1 augmentation	VCAM-1 down imaging	FPR binder
COc1cc2c(C#N)c(N3CCN(c4ccccc4OC)CC3)nc(N)c2c(N)n1	-3	i	i	i	-3
CCOC(=O)C1CCN(C(=O)CNS(=O)(=O)c2ccc(Br)s2)CC1	3	.	.	.	-6
CCc1noc(C)c1C(=O)N1CC(C)OC(C)C1 (centres undefined)	0	.	.	.	-1

Already shown: 4 of the compounds above.
Values run as follows: FPRL1 binder | VCAM-1 inhibition | VCAM-1 augmentation | VCAM-1 down imaging | FPR binder
- O=C(CCc1nc2ccccc2[nH]1)Nc1ccc2c(c1)OCO2
  0 | i | i | i | 5
- Cc1nnc(NC(=O)CSc2nnc(Cc3cccn3C)n2CCc2ccccc2)s1
  0 | . | . | . | 9
- CC(=O)c1cccc(NC(=O)Cn2cc3c(n2)CCCC3)c1
  -8 | . | . | . | -8
- O=C(Nc1ccc(-n2nncc2-c2ccco2)cc1)c1cccc(F)c1
  -2 | . | . | . | -2

(cont.)
Values run as follows: FPRL1 binder | VCAM-1 inhibition | VCAM-1 augmentation | VCAM-1 down imaging | FPR binder
- O=C(O)CCC(=O)N1CCc2cc(S(=O)(=O)N3CC=C(c4ccccc4)CC3)ccc21
  -4 | . | . | . | -2
- CC1Cc2nc(SCC(=O)N3CCc4ccccc43)n(C)c(=O)c2S1 (centres undefined)
  6 | . | . | . | -2
- Cn1c(=O)cc(OCCCC(=O)NCc2ccco2)c2ccccc21
  -4 | . | . | . | -1
- CCC(C)C(NC(=O)C1CCC(C)CC1)C(=O)NC(C(=O)OC)C(C)C (centres undefined)
  6 | . | . | . | 2
- Nc1nnc(N2CCc3ccccc32)s1
  -2 | . | . | . | -12
- Cc1ccc(C2CC(c3cccc(Br)c3)n3nc(N)nc3N2)cc1 (centres undefined)
  2 | . | . | . | 3
- COc1cccc(-c2nc(CS(=O)(=O)CC(=O)N3CCN(C)CC3)c(C)o2)c1
  2 | . | . | . | -7
- O=C(C1CC1)N1CCN=C1SCc1cccc(F)c1
  -1 | . | . | . | 4
- Cc1ccc(Nc2nc(C3CC3)cs2)cc1
  8 | . | . | . | 34*
- Cc1ccc2nc(/C(C#N)=N/O)[nH]c2c1
  -11 | i | i | i | 3
- CCN(CC)C(=O)Oc1ccc(NC(C)=O)cc1
  6 | i | i | i | -2
- Cc1ccc(-n2ncc3c(N4CCN(c5ccc(F)cc5)CC4)ncnc32)c(C)c1
  3 | i | i | i | -5
- O=C(Cn1cnc2c(nnn2Cc2ccc(F)cc2)c1=O)NCc1ccco1
  3 | . | . | . | -1
- N#CC1=C(SCC(=O)NC2CCCCC2)NC(=O)CC1c1ccco1 (centres undefined)
  -2 | i | i | i | -7
- CCOc1ccccc1Oc1c(C)oc2cc(OC(=O)N3CCOCC3)ccc2c1=O
  0 | . | . | . | -2
- CCOC(=O)CCn1nc(-c2ccccc2)cc1N
  5 | . | . | . | 10
- Cc1cc2ncc(-c3ccc(Cl)cc3)c(N)n2n1
  2 | i | i | i | 8
- O=S(=O)(NCCNS(=O)(=O)c1cccs1)c1cccs1
  4 | . | . | . | -1
- CCOC(=O)C1=C(C)Nc2nc(C)nn2C1c1ccc(OCC)c(OC)c1 (centres undefined)
  -3 | . | . | . | -4
- CCN(C(=O)c1cccs1)c1nnc(-c2ccncc2)s1
  -6 | i | i | i | 2
- OCCCc1nc2n(n1)C(c1ccccc1)C=C(c1ccc(F)cc1)N2 (centres undefined)
  -4 | . | . | . | 5
- COc1ccc(-n2nc(C(=O)N3CCC(C#N)CC3)c3c4ccccc4n(C)c3c2=O)cc1
  1 | . | . | . | 1
- CCOC(=O)N1CCN(C(=O)CN2C(=O)CC(C)(C)S(=O)(=O)c3ccccc32)CC1
  5 | . | . | . | 1
- Cc1cc2ncn(C(=O)c3c(-c4ccccc4)noc3C)c2cc1C
  -5 | i | i | i | 0
- COc1cccc(-c2nc3n(n2)C(c2cccs2)C(C(=O)Nc2cccnc2)=C(C)N3)c1 (centres undefined)
  3 | i | i | i | 5
- COc1ccccc1-c1nnc(NC(=O)c2ccc(S(=O)(=O)N(C)C)cc2)o1
  6 | . | . | . | -2
- Cc1ccc(-c2nnc(N3CCN(C(=O)CN4C(=O)c5ccccc5C4=O)CC3)c3ccccc23)cc1
  -6 | i | i | i | -10
- COC(=O)C1CN(S(=O)(=O)c2ccc(C)cc2)CCN1S(=O)(=O)c1ccc(C)cc1 (centres undefined)
  6 | . | . | . | -3
- CCCCn1c(CN2CCN(C(=O)OCC)CC2)nc2c1c(=O)[nH]c(=O)n2C
  15 | . | . | . | -10
- c1ccc(Cc2nnc3sc(-c4ccc5c(c4)OCCO5)nn23)cc1
  -4 | . | . | . | 12
- COC1CCCCC1NS(=O)(=O)c1ccccc1 (centres undefined)
  0 | i | i | i | 0
- Cn1c(=O)oc2cc(S(=O)(=O)NC3CCCCCCC3)ccc21
  4 | . | . | . | 9
- CCN(CC)C(=O)C1=C(C)Nc2nnnn2C1c1cccnc1 (centres undefined)
  3 | i | i | i | 7
- O=C(NCc1cccnc1)C1CCCCN1S(=O)(=O)c1ccc(F)cc1 (centres undefined)
  -1 | . | . | . | -7
- Cc1cccc(-c2c3c(=O)n(C)c(=O)n(C)c3cn2-c2ccc(O)cc2)c1
  -1 | i | i | i | -4

Bioassay records deposited in PubChem by several laboratories.

Some of the compounds tested; rates above refer to the full screens.
